# Screens deposited in PubChem BioAssay by National Center for Advancing Translational Sciences (NCATS).
# HPGD block: inhibitors of human 15-hydroxyprostaglandin dehydrogenase (HPGD); purified HPGD, NADH fluorescence kinetic, PGE2 substrate; P15428; AID 894; 4.3% of 150,000 active; Potency, µM, for inactives: at the highest dose activity change, negative = inhibition, usual class: inhibitors; active = well fitted inhibition curve with a large enough effect (not every such curve was filed as active); inconclusive = small, poorly fitted or top-dose-only effect, or another doubt; inactive = no such curve, though single readings can be large or run the other way;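 further: top concentration of the series not given in the record; plate controls included wells without enzyme; inactives centre near -10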
# Target sequence (P15428 whole entry, looked up): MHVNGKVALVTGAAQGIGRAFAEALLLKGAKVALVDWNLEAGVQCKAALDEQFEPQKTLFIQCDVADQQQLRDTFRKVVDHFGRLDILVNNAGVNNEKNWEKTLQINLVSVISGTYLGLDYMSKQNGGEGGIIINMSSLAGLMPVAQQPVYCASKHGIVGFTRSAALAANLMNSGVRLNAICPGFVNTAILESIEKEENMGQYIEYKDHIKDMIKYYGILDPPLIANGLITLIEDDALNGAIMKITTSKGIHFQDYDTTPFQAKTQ
#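 NADH formation kinetics: reaction with 30 uM PGE2 and 1 mM NAD+ (final), 20 nM enzyme, Tris-HCl pH 8 with Tween 20, after 15 min compound preincubation at room temperature. Fluorescence change, last versus first of five reads.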
# * = called active by the depositor; ? = inconclusive; & = joins results of further samples. On the % scale 0 is the no-effect control and ±100 the full control effect; potency means the concentration at half of the fitted maximal effect. An excerpt; count on the stated rates, not on these rows.
SMILES,HPGD block
CCCCn1c(O)c(C=NCCCN(C)C)c(=O)[nH]c1=O,-6.2%
O=C(CCn1c(=O)sc2ccccc21)Nc1cccnc1,-3.3%
CCCn1c(C(C)NC(=O)c2ccccc2)nc2ccccc21 (configuration not stated),-8.7%
Cc1nc(SCC(=O)O)c2oc3ccccc3c2n1,17.8µM*
Cc1ccc(-n2ncc3c(=O)n(-c4ccc(C)c(C)c4)c(C)nc32)cc1,-4.1%
Cc1ccc(-c2nnc(CSc3nnc(COc4cccc5ccccc45)n3-c3ccccc3)o2)cc1,-21.6%
CCCCSc1nc(N)c(C#N)c(-c2cccs2)c1C#N,?
Nc1sccc1C(=O)c1ccccc1,-12.0%
O=c1c2oc3ccccc3c2ncn1Cc1ccccc1F,-26.8%
Cc1cc(C)n(C(=O)CCNC(=O)c2ccccc2Br)n1,7.94µM*
COc1cc([C@H]2[C@@H]3CCCC[C@]3(O)CCN2CC(=O)Nc2ccc(C)cc2C)ccc1O,-1.0%
Cc1cccc(NC(=O)/C=C/c2ccc([N+](=O)[O-])s2)c1,-5.8%
CCOC(=O)C(CCCOc1cccc(CC)c1)C(=O)OCC,-7.7%
COc1ccc(/C=N/n2cnnc2SCCO)cc1OC,?
N#Cc1c(-c2ccco2)c2c([nH]c1=S)CCCC2,15.8µM*
Cc1cc(C)cc(NC2=NCC(=O)N2Cc2ccccc2)c1,-6.8%
Cc1cc2nn(-c3cccc4ccccc34)nc2cc1N,?
CCOC(=O)c1ccc(NC(=O)CC2COc3ccccc3O2)cc1 (configuration not stated),-17.9%
O=C(c1cc(C(F)(F)F)cc(C(F)(F)F)c1)N1CCC2(CCCN(Cc3ccncc3)C2)CC1,0.4%
O=C(CCC(=O)N1CCOCC1)Nc1nnc(C2CCCCC2)s1,-19.3%
CN1C(=O)C(CC(=O)NC2CCCCC2)SC1=Nc1ccccc1 (configuration not stated),-13.8%
CCN(CC)C(=O)C1CCC(CNS(=O)(=O)c2cccc3cccnc23)CC1 (configuration not stated),7.94µM*
CN(C)/C=C1/Sc2ccccc2C1=O,-16.4%
O=C1NC(c2ccccc2)CCC1(Cl)Cl (configuration not stated),-8.5%
O=C(c1ccccc1)c1ccc2nc(N3CCN(C(=O)c4ccco4)CC3)c3nncn3c2c1,?
C=C(Nc1ccc(OC)cc1)C(=O)OC,-6.6%
Cc1cccc(CN2CCc3c(OCC(=O)N4CCCc5ccccc54)cccc3C2=O)c1,-24.8%
CCOC(=O)C1CCCN(C(=O)c2cc(-c3ccc(C)cc3)on2)C1 (configuration not stated),15.8µM*
COc1ccccc1CNc1ccc(N2CCOCC2)c(C(=O)O)c1,-9.4%
Cc1cc(C)nc(NC(=O)C(c2ccccc2)c2ccccc2)n1,-1.8%
Cc1cccc(C)c1OCC(O)CNS(=O)(=O)c1ccccc1C(=O)N1CCCCC1 (configuration not stated),1.5%
COc1cc(OC)cc(C(=O)Nc2ccc(S(=O)(=O)Nc3cc(C)on3)cc2)c1,-20.6%
CN(Cc1ccccc1)S(=O)(=O)c1ccc(C(=O)Nc2nnc(C3CC3)o2)cc1,-16.3%
Cc1cc(NC(=O)C2C3C(=O)N(Cc4ccc(Cl)cc4)C(C(=O)NC(C)(C)C)C34C=CC2(C)O4)no1 (configuration not stated),-3.2%
CC(C)(C)c1csc(NC(=O)Cn2c(=O)oc3ccccc32)n1,-19.4%
CCCN1CCN(c2ncnc3c2nnn3Cc2ccccc2)CC1,25.1µM*
O=C(COc1ccc([N+](=O)[O-])cc1)Nc1ccc(N2CCCC2)cc1,-12.5%
O=C1N/C(=C/c2cccn2-c2ccccc2)C(=O)N1Cc1ccccc1F,-14.3%
COc1ccc(S(=O)(=O)Nc2ccc3c(c2)OCO3)cc1Cl,?
CCC(C)NC(=O)C1CCN(S(=O)(=O)c2ccc(OC)cc2)CC1 (configuration not stated),-5.8%
CN(c1ccccc1C(=O)Nc1ccccc1C(=O)NCc1ccco1)S(C)(=O)=O,-11.8%
COc1ccc(C(=O)Nc2ccc3c(c2)nc(CN2CCN(C(C)=O)CC2)n3C)cc1,-6.9%
Cc1cc(/C=N/n2cnnc2)c(C)n1-c1ccc(Cl)cc1,-9.9%
CC1CC(C)CN(C(=O)C2CCCN(S(=O)(=O)c3cccc4nonc34)C2)C1 (configuration not stated),1.5%
COc1ccc(N(C(C)C(=O)N/N=C/c2ccc(OCC(C)C)cc2)S(C)(=O)=O)cc1 (configuration not stated),-4.4%
Cc1cccc(NC(=O)c2cc([N+](=O)[O-])ccc2NC2CCCCC2)c1,-24.6%
Cc1noc(C)c1S(=O)(=O)N(CC(=O)Nc1ccc2c(c1)OCO2)c1ccc(C(C)C)cc1,-10.8%
O=C(CSc1ncc(C(F)(F)F)cc1Cl)N1CCN(S(=O)(=O)c2ccccc2)CC1,?
CC1(OC(=O)C2CCCC2)C(=O)C=C2C=C(c3ccsc3)N(Cc3ccccc3)C=C2C1=O (configuration not stated),-20.1%
CCCOc1ccc(S(=O)(=O)NCCCN2CCOCC2)c2ccccc12,-3.3%

# Following part.
SMILES,HPGD block
CCNC(=O)C1CC(=O)N(c2ccc(Br)cc2)C1 (configuration not stated),0.9%
CCN(CC)S(=O)(=O)c1ccc(O)c(NS(=O)(=O)c2ccccc2F)c1,25.1µM*
O=C(CSc1ccc(Cl)cc1)OCc1nnc(-c2ccccc2)o1,-17.8%
CCOC(=O)c1nnc(-c2cccs2)nc1Oc1ccc(Cl)cc1,-8.5%
NCS(=O)(=O)O,-7.8%
CCOC(=O)N1CCN(C(=O)c2oc(=O)c3ccccc3c2-c2ccc(C)cc2)CC1,-8.3%
N#CCCN(C(=O)CSc1ccc2c(c1)OCCO2)c1ccccc1,-14.3%
CCN1CCN(C(=O)C2c3cc(OC)c(OC)cc3C(=O)N(C)C2c2ccc(SC)cc2)CC1 (configuration not stated),-18.1%
CCC1Sc2ccccc2N(CC(=O)NCc2ccc3c(c2)OCO3)C1=O (configuration not stated),-10.8%
CCCC(=O)Nc1nnc(-c2ccco2)s1,?
O=[N+]([O-])c1ccc(C2CCCC/C2=N/OCc2ccc(F)cc2)c([N+](=O)[O-])c1 (configuration not stated),-18.5%
CCN1CCN(c2c(Cl)cccc2NC(=O)c2ccc3c(c2)OCCO3)CC1,-3.7%
O=C(Nc1ccc(S(=O)(=O)NCc2ccco2)cc1)c1ccncc1,-0.8%
COc1ccc(/C(C)=N\NS(C)(=O)=O)c(OC)c1,?
Cc1cc(-c2cccs2)n[nH]1,-1.6%
CCOC(=O)c1c(NC(=O)CSc2nnc(C)s2)sc2c1CCC(CC)C2 (configuration not stated),-13.5%
CC(S)C(=O)NCC(=O)O (configuration not stated),-7.2%
CC(C)NC[C@H](O)c1cc(O)cc(O)c1,4.1%
NC(=O)Cc1ccc2sc(-c3ccccc3)nc2c1,?
O=C(Nc1ccccc1)c1nc2ccccc2s1,-8.0%
COc1cc(/C=C/C(=O)NCCn2c(C)cc3ccccc32)cc(OC)c1OC,-12.5%
Cc1ccc(-c2nn(CC(=O)NCc3ccco3)c(=O)c3ccccc23)cc1,-16.1%
COc1ccc(-c2nnc(SCc3ccccn3)n2C)cc1,-4.2%
CCN(CC)S(=O)(=O)c1ccc(OC)c(NC(=O)COc2ccc3c(C)cc(=O)oc3c2)c1,?
CCc1ccc(NC(=O)C(C)OC(=O)CCC(=O)c2cccs2)cc1 (configuration not stated),-0.1%
Cc1ccc2c(COC(=O)C3=COCCO3)cc(=O)oc2c1,-27.8%
COc1ccc(CNc2nc3c(c(=O)[nH]c(=O)n3C)n2Cc2ccccc2C)cc1,-8.7%
CC(Oc1ccc(Cl)cc1Cl)C(=O)NC(=S)N1CCc2ccccc21 (configuration not stated),-21.6%
Cn1cc[nH]c1=S,-1.9%&-18.5%&-2.1%
Cc1ccc(OCc2nnc(SCC(=O)N3CCOCC3)n2C)cc1,-14.5%
CCOc1cc(C(=O)NC(=S)Nc2cccnc2)cc(OCC)c1OCC,-6.3%
O=C(CSc1nc2ccccc2o1)c1cc2ccccc2oc1=O,-6.0%
O=S(=O)(c1ccc(NC(=S)Nc2ccc(OC(F)F)cc2)cc1)N1CCOCC1,-5.2%
O=C(O)c1cc2nc3c(c(C(F)(F)F)n2n1)CCc1ccccc1-3,-9.9%
COc1ccc(-n2c(C)c(C(C)=O)c(C(C)=O)c2C)cc1,-3.6%
O=C(N/N=C/c1ccsc1)c1cc(-c2ccncc2)nc2ccccc12,-8.1%
CCCCC(=O)c1c(C)cc(C)[nH]c1=O,-11.0%
COc1ccc(OC)c(N(CC(=O)Nc2cccnc2)S(C)(=O)=O)c1,-1.6%
O=C1C=C(Nc2cccc(Cl)c2)CC(c2ccco2)C1 (configuration not stated),-20.3%
Cc1nc2nc(C)c(CCC(=O)N3CCOCC3)c(C)n2n1,-3.5%

# A draw from above in order of length of the SMILES, rising:
SMILES,HPGD block
O=C(CSc1nc2ccccc2o1)c1cc2ccccc2oc1=O,-6.0%
COc1ccc(-n2c(C)c(C(C)=O)c(C(C)=O)c2C)cc1,-3.6%
COc1ccc(OC)c(N(CC(=O)Nc2cccnc2)S(C)(=O)=O)c1,-1.6%

# Next part
SMILES,HPGD block
CCCN(CC(=O)Nc1cc(Cl)cc(Cl)c1)CC(=O)Nc1ccc(F)c(F)c1F,-26.1%
Cc1ccc([N+](=O)[O-])cc1NC(=O)c1ccc(C(C)(C)C)cc1,15.8µM*
Clc1cc(Cl)c(Cl)c(Cl)c1Cl,-10.2%
CCc1cccc(C)c1NC(=O)CSc1nc2ccccc2n1CC(=O)N(C)C,-5.8%
S=c1[nH]nc(C2CC2)n1Cc1ccco1,-28.1%
CC1(C)NC(=O)N(CCCOc2ccc(Br)cc2Cl)C1=O,-7.1%
O=C(NCCc1csc(-c2cccnc2)n1)c1ccccc1,-19.1%
CCCC1(CCC)C(=O)NC(=NCCc2ccc(OC)c(OC)c2)NC1=O,-11.3%
Cc1ccc(S(=O)(=O)c2nc(-c3ccc(F)cc3)oc2SCC(=O)NCC2CCCO2)cc1 (configuration not stated),-23.0%
O=C(NCCn1ccc2ccccc21)c1ccc(S(=O)(=O)N2CCCCC2)cc1,?
Cc1c(C(=O)NCc2ccc3c(c2)OCO3)cccc1[N+](=O)[O-],?
O=C(CSC1=NCCS1)Nc1ccnc2ccccc12,-21.3%
CCC(=O)NCCCCCCNC(=O)CC,3.8%
CCOC(=O)C(C)Sc1nnc(CNC(=O)c2ccc(OC)cc2)n1C1CCCCC1 (configuration not stated),-2.7%
Cc1ccc(Nc2nc3c([nH]2)c(=O)[nH]c(=O)n3C)cc1,-9.6%
COc1cccc(NC(=O)CSc2nc(C)cs2)c1,-12.6%
O=C(CN1CCN(S(=O)(=O)c2ccccc2)CC1)NC(=O)NCc1ccccc1,-0.9%
O=C1C(=O)N(c2ccccc2)c2ccccc21,-19.6%
COc1ccc(CSC2=C(C#N)C(=O)NC3(CCCCC3)S2)cc1,-9.7%
CC1CCN(C(=O)CNC(=O)c2ccc(Cl)cc2Cl)CC1,-23.1%
COC(=O)N/N=C/c1cc([N+](=O)[O-])cc(Br)c1O,-12.4%
CC1CCCC(C)N1C(=O)c1cccc2c1-c1ccccc1/C2=N/O (configuration not stated),-9.4%
O=C(NC1CC1)C(=O)c1c(-c2ccccc2)[nH]c2ccccc12,-2.4%
CC1Cc2nc(SCC(=O)N3CCN(c4ccccc4)CC3)n(CCc3ccccc3)c(=O)c2S1 (configuration not stated),-10.9%
Cc1cc(NC(c2cccnc2)c2c(C)[nH]c3ccccc23)no1 (configuration not stated),-16.4%
CCOC(=O)C1=C(C)NC2=C(C(=O)CCC2)C1c1ccsc1 (configuration not stated),?
O=c1[nH][nH]c(C(F)(F)F)c1C=Nc1ccccc1,-12.1%
CN1C(=O)/C(=C/c2ccc(-c3ccccc3[N+](=O)[O-])o2)SC1=Nc1ccc(Cl)c(C(=O)O)c1,14.1µM*
CCc1cccc(C)c1NC(=O)c1ccoc1C,-14.0%
COc1ccc(S(=O)(=O)N(Cc2ccccc2)c2ccccc2C(=O)Nc2ccccc2C(=O)NCc2ccco2)cc1,-18.0%
O=C(O)c1ccc2c(c1)C(=O)N(N1C(=O)c3ccccc3C1=O)C2=O,-8.8%
Cc1cc(SCC(=O)NCCC2=CCCCC2)nc2ccccc12,25.1µM*
CCOC(=O)c1ccccc1NC(=O)CSc1ccccc1,-15.7%
Cc1nnc(SCC(=O)NCc2cccs2)n1-c1ccccc1,1.9%
O=C(N/N=C/c1cccs1)c1cnccn1,-12.7%
O=C(c1cc(-c2ccc(O)cc2)on1)N1CCc2ccccc2C1,12.6µM*
O=C(NCc1ccc2c(c1)OCO2)c1ccc(CS(=O)(=O)c2cccc(C(F)(F)F)c2)o1,-11.4%
CC(C)(CSc1nncn1N)NS(=O)(=O)c1ccc(Cl)cc1,1.7%
CCN1CCCC1CNC(=O)C(=O)Nc1cccc(OC)c1 (configuration not stated),-4.9%
CCCCCC(O)/C=C/C=O (configuration not stated),-7.2%
COCC(C)n1c(C)cc(C(=O)CSc2ccc(NC(C)=O)cc2)c1C (configuration not stated),?
Cc1ccccc1NC(=O)/C(=C/c1ccco1)c1ccccc1,-13.3%
O=C(c1cccs1)N1CCC(c2nc(-c3ccc(S(=O)(=O)N4CCOCC4)cc3)no2)CC1,-15.2%
O=C(c1cccs1)N1CCCc2ccccc21,-4.3%
